# From PubChem
# AF4-AF9 inh: MLL-AF4/AF9 protein interaction inhibition | inhibition, % at 10 µM | AlphaScreen, biotin-AF4 peptide binding to FLAG-AF9 | AID 651704 | actives 0.47% (n = 350,000) | P42568;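 active = every replicate reaching a set inhibition limit, whatever the replicate mean, cut at about 25% in these data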;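 note: 0% = plate neutral control median and 100% = total signal loss; the record names both 10 and 1 µM as test concentration; the first replicate is given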
# Target sequence (P42568 whole entry, looked up): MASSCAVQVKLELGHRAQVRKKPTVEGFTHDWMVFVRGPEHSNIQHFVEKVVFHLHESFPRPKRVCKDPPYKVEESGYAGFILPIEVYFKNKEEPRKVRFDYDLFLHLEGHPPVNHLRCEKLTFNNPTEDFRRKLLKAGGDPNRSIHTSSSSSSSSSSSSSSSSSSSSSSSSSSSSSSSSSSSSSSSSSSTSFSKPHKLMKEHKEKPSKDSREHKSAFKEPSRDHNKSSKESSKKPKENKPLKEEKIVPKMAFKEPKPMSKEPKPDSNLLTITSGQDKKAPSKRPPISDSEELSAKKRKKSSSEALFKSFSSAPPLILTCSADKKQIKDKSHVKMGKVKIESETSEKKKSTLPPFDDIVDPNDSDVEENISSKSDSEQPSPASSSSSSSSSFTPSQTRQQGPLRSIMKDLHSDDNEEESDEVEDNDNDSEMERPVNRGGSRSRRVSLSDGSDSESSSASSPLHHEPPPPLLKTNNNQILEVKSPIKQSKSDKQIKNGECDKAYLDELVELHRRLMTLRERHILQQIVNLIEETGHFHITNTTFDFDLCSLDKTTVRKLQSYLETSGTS
# Ecoli rRNA inh: selective bacterial rRNA inhibition in E. coli. E. coli WT GFP vs humanized-ribosome RFP mutants, fluorescence, 24 h; active compounds read low; DMSO median 0, no signal -100. GFP signal change (wild-type ribosome), % (concentration not given with the values). actives 1.6% (n = 350,000);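 active = significant combined selectivity score with lowered wild-type GFP, culture density cut under 30%, mutant RFP and density less affected; inactive = any of these conditions unmet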; note: one replicate is shown; some compounds called inactive have numbers as strong as hits
# FGF22 binding: binders of recombinant human FGF22 by thermal shift; Q9HCT0; SYPRO orange fluorescence; percent of sucrose octasulfate shift, DMSO zero; calls only at 9.99 µM; actives 1.5% (n = 340,000); AID 651658;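 active = melting point raised past a set limit in the mean and every replicate; three in four hits are not shown here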
# Target sequence (Q9HCT0 whole entry, looked up): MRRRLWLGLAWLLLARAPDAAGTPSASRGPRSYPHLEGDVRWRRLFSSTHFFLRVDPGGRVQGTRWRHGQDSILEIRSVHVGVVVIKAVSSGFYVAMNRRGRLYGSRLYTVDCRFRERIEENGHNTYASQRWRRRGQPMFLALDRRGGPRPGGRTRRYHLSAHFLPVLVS
# Ecoli rRNA inh OD600: further read-out of Ecoli rRNA inh, marked with its call; OD600 change, %; measured here: OD600 growth;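 optical density of the mix in the first replicate; 0 = DMSO median and -100 = no signal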
# Ecoli rRNA inh RFP: recorded beside Ecoli rRNA inh, whose call it bears; RFP signal change, %; measured here: RFP humanized mutant strains;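 first replicate; 0 = DMSO median and -100 = no signal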
# The depositor's hits bear a star; i = inactive; . = no result given; + = active, no number. Not all compounds are listed. The share of hits here may be higher or lower than overall.
AF4-AF9 inh	Ecoli rRNA inh	Ecoli rRNA inh OD600	Ecoli rRNA inh RFP	FGF22 binding	SMILES
-1.3	2	10	-2.1	i	C[C@H](CO)N1C[C@H](C)[C@@H](CN(C)Cc2cccnc2)Oc2ncc(-c3ccccc3)cc2C1=O
9.4	2	-15	8.4	i	CCN(CC)C(=O)c1cccc(-c2csc(C(O)c3cccc(OC)c3)n2)c1 (stereo not given)
-0.1	2	13	-1.0	i	C[C@@H]1CN([C@@H](C)CO)C(=O)c2cccc(NC(=O)c3ccc(-c4nccs4)cc3)c2O[C@@H]1CN(C)S(=O)(=O)c1cn(C)cn1
-2.4	-63	-80	-19	i	O=P(NCc1ccccc1)(OCc1ccccc1)OCc1ccccc1
-1.4	4	6	-1.1	i	CO[C@H]1CN(C)C(=O)c2ccc(NC(=O)C3CC3)cc2OC[C@@H](C)N(C(=O)c2cnccn2)C[C@H]1C
-4.0	-11	-11	-2.8	+	CC1(C(=O)NS(=O)(=O)c2ccc(Cl)cc2)CCN1C(=O)Cc1ccc(Cl)cc1Cl (stereo not given)
-1.4	11	14	0.1	i	O=C(Nc1ccnn1C1CCN(C(=O)c2cccnc2)CC1)c1cccc(F)c1
-2.3	8	0	-3.5	i	COc1ccc(C(=O)Nc2cccc(NC(C)=O)c2)cc1
10	-3	9	19	i	CO[C@H]1CN(C)C(=O)c2ccc(NC(=O)c3ccc(-c4ccccc4)cc3)cc2OC[C@@H](C)NC[C@H]1C
-6.2	-1	6	-1.0	i	C[C@@H]1CN([C@H](C)CO)C(=O)c2cc(NS(=O)(=O)c3cn(C)cn3)ccc2O[C@@H](C)CCCCO[C@@H]1CN(C)C(=O)C1CCCCC1
-1.4	2	2	-0.3	i	C[C@@H]1CN([C@H](C)CO)C(=O)c2cc(NC(=O)C3CCCCC3)ccc2O[C@@H]1CN(C)Cc1ccc2c(c1)OCO2
-1.5	4	16	-6.1	i	O=c1[nH]c2ccc([N+](=O)[O-])cc2[nH]1
2.3	-10	-18	7.5	i	Cc1ccc(Nc2nnc(SCC(O)=C(C#N)c3nc4ccccc4[nH]3)s2)c(C)c1
-2.8	3	3	-2.0	i	O=C1CCC[C@@H]2[C@H](Cc3ccccc3)[C@@H](O)C[C@@H]3CCN1[C@@H]32
-3.7	12	9	1.8	i	COC(=O)C[C@@H]1C=C[C@H](NC(=O)c2cnccn2)[C@@H](CO)O1
0.1	-2	-3	0.5	i	O=C(N[C@H]1CC[C@H](CCNC(=O)c2ccccc2F)O[C@@H]1CO)c1ccc2c(c1)OCO2
-1.0	4	0	-1.8	i	CC(C)c1cn(CC[C@@H]2CC[C@H](NS(=O)(=O)Cc3ccccc3)[C@@H](CO)O2)nn1
-4.7	3	9	3.6	i	COc1ccc(N2C(=O)CC(Sc3nccc(C)n3)C2=O)c(OC)c1 (stereo not given)
2.6	-5	-12	7.9	i	COc1ccccc1CN(C)C[C@@H]1OCc2ccccc2-c2c(n(C)c3ccccc23)C(=O)N([C@@H](C)CO)C[C@@H]1C
0.1	3	-2	3.1	i	CC(C)OC(=O)N(C)C[C@H]1OCc2ccccc2-c2c(n(C)c3ccccc23)C(=O)N([C@H](C)CO)C[C@H]1C
20	5	9	-5.3	i	CN(N=C(c1ccccc1)c1ccccc1)c1ccccc1
2.5	0	-6	2.3	i	C[C@@H]1CN([C@@H](C)CO)C(=O)Cc2cc(NC(=O)CCN3CCOCC3)ccc2O[C@@H]1CN(C)Cc1ccc(Cl)c(Cl)c1
-2.0	2	6	-2.5	i	CN1C(=O)c2cc(NS(=O)(=O)c3cccc(F)c3)ccc2OC[C@H]2O[C@H](CC(=O)NCCN3CCCCC3)CC[C@H]21
-1.6	0	9	-1.9	i	CC(=O)N1CC2(C1)[C@H](c1ccccc1)[C@H](CO)N2S(=O)(=O)c1ccccc1
1.8	-30	-45	-5.4	i	Cc1noc(NS(=O)(=O)c2ccc(NC(=O)c3ccc(Cl)c(S(=O)(=O)N(C)c4ccccc4)c3)cc2)c1C
-20	5	12	-3.0	i	CC(=O)N1C[C@@H]2[C@H](c3ccccc31)[C@@H](CO)N2C(=O)CC1CC1
1.1	5	17	-2.4	i	COc1ccc2c3c([nH]c2c1)[C@H](CO)N(C(=O)C1CC1)CC31CN(C(=O)c2ccncc2)C1
-1.7	3	-1	1.6	i	CCCNC(=O)N[C@H]1CC[C@H](CCNS(=O)(=O)c2cccc(F)c2)O[C@H]1CO
15	-14*	-6.4*	6.0*	i	COc1ccccc1C(C(C(=O)c1ccccc1)N1CCOCC1)N1CCOCC1 (stereo not given)
0.7	-10	-31	-8.5	i	C[C@@H]1CN([C@@H](C)CO)S(=O)(=O)c2ccc(Br)cc2O[C@H]1CN(C)Cc1cccnc1
3.7	2	-4	1.0	i	Cc1cccc(NC(=O)Nc2ccc3c(c2)C(=O)N(C)[C@@H]2CC[C@@H](CC(=O)NCc4ccccc4Cl)O[C@H]2CO3)c1
15	-20	-51	17	.	Cc1c(N)cc2c(c1N)C(C)(C)CC2(C)C
-1.7	-1	5	-3.4	i	O=C(C[C@H]1CC[C@@H]2[C@H](COC[C@H](O)CN2Cc2nccs2)O1)NCc1ccc(Cl)cc1
-2.6	0	-10	-0.8	i	COC(=O)C[C@@H]1CC[C@@H]2[C@H](COC[C@@H](O)CN2C(=O)Nc2ccccc2OC)O1
-2.2	-2	0	-1.9	i	C[C@H](CO)N1C[C@H](C)[C@@H](CN(C)C(=O)Nc2ccc(C(F)(F)F)cc2)Oc2c(NS(C)(=O)=O)cccc2C1=O
-11	2	5	1.4	i	COCCNC(=O)C[C@H]1C[C@@H]2c3cc(N(C)C)ccc3O[C@@H]2[C@@H](CO)O1
1.2	-3	8	-0.1	i	C[C@H]1CN([C@@H](C)CO)C(=O)c2cc(N(C)C)ccc2O[C@H]1CN(C)C(=O)Nc1cccc2ccccc12
-2.9	0	2	-2.1	i	Cc1noc(C)c1NC(=O)Nc1ccc2c(c1)C(=O)N([C@H](C)CO)C[C@@H](C)[C@@H](CN(C)C(=O)Nc1c(C)noc1C)OCCCC[C@@H](C)O2
-3.0	10	16	1.8	i	CCOC(=O)c1cocc1C(=O)O
8.3	3	-5	6.1	i	C[C@@H]1CN([C@@H](C)CO)C(=O)Cc2cc(NC(=O)CCN3CCOCC3)ccc2O[C@@H]1CN(C)Cc1ccc(Oc2ccccc2)cc1
8.1	10	11	11	i	Oc1cc(CNCc2ccccc2)c(O)cc1CNCc1ccccc1
-2.5	4	17	-2.3	i	CNC(=O)C[C@@H]1CC[C@H]2[C@@H](COC[C@@H](O)CN2Cc2ccccc2F)O1
-1.3	-1	-1	0.1	i	Cc1noc(C)c1NC(=O)N[C@@H]1CC[C@@H](CC(=O)NCCCN(C)C)O[C@H]1CO
-2.9	0	-3	-2.1	i	CC(C)NC(=O)Nc1ccc2c(c1)CC(=O)N([C@H](C)CO)C[C@@H](C)[C@H](CN(C)CC1CC1)O2
-1.4	-1	1	2.0	i	O=C(C[C@@H]1C[C@@H]2c3cc(NC(=O)Cc4ccncc4)ccc3O[C@@H]2[C@H](CO)O1)NCc1ccccc1

# 5 compounds from above, showing only AF4-AF9 inh and Ecoli rRNA inh RFP:
smiles	AF4-AF9 inh	Ecoli rRNA inh RFP
CCOC(=O)c1cocc1C(=O)O	-3.0	1.8
C[C@@H]1CN([C@@H](C)CO)C(=O)Cc2cc(NC(=O)CCN3CCOCC3)ccc2O[C@@H]1CN(C)Cc1ccc(Oc2ccccc2)cc1	8.3	6.1
Oc1cc(CNCc2ccccc2)c(O)cc1CNCc1ccccc1	8.1	11
CNC(=O)C[C@@H]1CC[C@H]2[C@@H](COC[C@@H](O)CN2Cc2ccccc2F)O1	-2.5	-2.3
Cc1noc(C)c1NC(=O)N[C@@H]1CC[C@@H](CC(=O)NCCCN(C)C)O[C@H]1CO	-1.3	0.1

# Further structures:
AF4-AF9 inh	Ecoli rRNA inh	Ecoli rRNA inh OD600	Ecoli rRNA inh RFP	FGF22 binding	SMILES
-3.8	0	15	-1.4	i	Cc1cc(C(=O)Nc2cccc3c2O[C@H](CN(C)C(=O)Nc2c(C)noc2C)[C@H](C)CN([C@@H](C)CO)C3=O)n(C)n1
0.3	-2	-10	-0.3	i	Cc1ccc(-c2ccc3c(c2)O[C@H](CN(C)S(C)(=O)=O)[C@@H](C)CN([C@H](C)CO)S3(=O)=O)cc1
-2.4	-22	-20	-1.4	i	CN1CCN(C(=O)C[C@@H]2CC[C@@H]3[C@H](COC[C@@H](O)CN3C(=O)Nc3ccc(Cl)cc3)O2)CC1
-6.3	4	19	5.0	i	CN(C)C(=O)c1cc2c(c(-c3cccc(C4=CCCC4)c3)n1)[C@@H](CCO)N([S@](=O)C(C)(C)C)C2
-1.2	2	4	-1.5	i	COc1ccc(NC(=O)Nc2ccc3c(c2)[C@H]2C[C@H](CC(=O)NCC4CC4)O[C@@H](CO)[C@H]2O3)cc1
-2.2	9	3	-0.2	i	O=C(CS(=O)(=O)c1ccccc1)Nc1ccccc1Br
0.0	2	3	0.1	i	COc1ccc(C(=O)O)cc1S(=O)(=O)Nc1cc(Cl)ccc1N1CCOCC1
1.4	0	-1	-0.4	i	COc1ccccc1CN1[C@@H](CO)[C@H](c2ccccc2)C12CN(C(C)=O)C2
-4.8	3	4	-1.8	i	C[C@@H]1CN([C@@H](C)CO)C(=O)CCCn2cc(nn2)CO[C@@H]1CN(C)S(=O)(=O)c1cccs1
2.0	-2	-20	1.0	i	COc1ccc(F)cc1-c1cc(C(=O)NCc2ccccc2)[nH]n1
-1.9	0	7	-0.6	i	CCS(=O)(=O)Nc1ccc2c(c1)C(=O)N(C)[C@H]1CC[C@@H](CC(=O)N3CCN(C)CC3)O[C@H]1CO2
-3.1	4	5	-2.6	i	CCCNC(=O)N(C)C[C@@H]1Oc2ncc(C#CC(C)C)cc2C(=O)N([C@@H](C)CO)C[C@H]1C
-1.1	-11	-33	26	i	CS(=O)(=O)Nc1cccc(NC(=O)c2cccc3c(-c4ccc(F)c(F)c4)coc23)c1
2.7	4	12	1.1	i	COc1ccc(NC(=O)CN(C)C(=O)c2ccc3c(c2)CC(c2ccccc2)OC3=O)cc1 (stereo not given)
17	-57	-81	-20	i	COC(=O)C1=C(C)N(Cc2cccc(C(F)(F)F)c2)C(=NCc2ccc3c(c2)OCO3)NC1c1ccccc1 (stereo not given)
2.4	3	2	-4.4	i	CCN1C(=O)[C@H]2[C@@H](c3ccc(C)cc3)N3C(=O)N(c4cccc(Br)c4)C(=O)[C@@]3(C)[C@H]2C1=O
-0.5	2	-1	-2.2	i	CCC(=O)Nc1ccc2c(c1)OC[C@H](C)N(C(C)=O)C[C@@H](C)[C@@H](OC)CN(C)C2=O
0.9	-4	-11	1.7	i	C[C@@H]1CCCCO[C@H](CN(C)C(=O)NC2CCCCC2)[C@H](C)CN([C@H](C)CO)C(=O)c2cc(NS(=O)(=O)c3ccccc3)ccc2O1
0.0	0	9	-1.0	i	CC(C)C(N)c1csc(Nc2nncc3ccccc23)n1 (stereo not given)
-2.1	-13	-17	-9.3	i	C[C@@H](c1ccccc1)N1C[C@H](COCc2ccccc2)Oc2cc(N3CC[C@H](O)C3)ccc2S1(=O)=O
-3.8	1	8	-2.0	i	CCCNC(=O)N(C)C[C@H]1Oc2ncc(C#CC(C)C)cc2C(=O)N([C@H](C)CO)C[C@@H]1C
1.2	-3	-4	-1.1	i	COc1ccc(S(=O)(=O)N2C[C@@H](O)COC[C@@H]3O[C@H](CC(=O)N[C@H]4CCN(Cc5ccccc5)C4)CC[C@H]32)cc1
-9.2	-16	-30	-6.5	i	COc1ccccc1[C@H]1C(c2ccc(F)cc2)=NN(c2ccccc2)[C@@H]1CO
-10.0	0	6	-2.6	i	CC(=O)N1[C@H](CO)[C@H](c2ccccc2)[C@H]1CN(C)C(=O)c1ccccc1F

# Random excerpt: 2 records from the list, in no set order.
AF4-AF9 inh	Ecoli rRNA inh	Ecoli rRNA inh OD600	Ecoli rRNA inh RFP	FGF22 binding	SMILES
0.9	-4	-11	1.7	i	C[C@@H]1CCCCO[C@H](CN(C)C(=O)NC2CCCCC2)[C@H](C)CN([C@H](C)CO)C(=O)c2cc(NS(=O)(=O)c3ccccc3)ccc2O1
-9.2	-16	-30	-6.5	i	COc1ccccc1[C@H]1C(c2ccc(F)cc2)=NN(c2ccccc2)[C@@H]1CO

# An excerpt of the results above, as a working copy:
AF4-AF9 inh	Ecoli rRNA inh	Ecoli rRNA inh OD600	Ecoli rRNA inh RFP	FGF22 binding	SMILES
-1.3	2	10	-2.1	i	C[C@H](CO)N1C[C@H](C)[C@@H](CN(C)Cc2cccnc2)Oc2ncc(-c3ccccc3)cc2C1=O
9.4	2	-15	8.4	i	CCN(CC)C(=O)c1cccc(-c2csc(C(O)c3cccc(OC)c3)n2)c1 (stereo not given)
